Bioassay records deposited in PubChem by Broad Institute.
Tgondii IFNg – T. gondii growth inhibition with IFN-gamma, primary screen, cell-based; Toxoplasma gondii growth in IFN-gamma-treated host cells; stronger effect = lower value; reference of the scale not given here; activity change, negative = inhibition, %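 (about 20 µM by stock and volumes)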; 69,000 compounds, 3.8% hits;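 active means below -70%; inconclusive means fit judged invalid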;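 further: host cells are HeLa cells infected with Toxoplasma gondii; parasite growth read as luciferase light; one replicate is shown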
The depositor's hits bear a star; ? = inconclusive; & = joins results of further samples; ! = not active in a repeat. Not all compounds are listed, so the mix of outcomes need not match the whole.

compound	Tgondii IFNg
C[C@@H]1CN([C@H](C)CO)C(=O)c2ccccc2-c2ccccc2CO[C@@H]1CN(C)Cc1ccccc1C(F)(F)F	-58
COc1cccc2cc(C(=O)Nc3ccc(CN4CCOCC4)cc3)c(=O)oc12	13
CC1c2ncc(CN3CCN(C)CC3)n2CCN1CC1CCOCC1 (stereo not drawn)	104
Cn1nc(C(=O)NCc2noc(-c3ccco3)n2)c2c1CCCC2	-2
CN(Cc1ccccc1)C1(C(=O)NCCc2ccncc2)Cc2ccccc2C1	2
CNC[C@@H]1OCCCC[C@@H](C)Oc2ccc(NS(=O)(=O)c3ccc(F)cc3)cc2C(=O)N([C@H](C)CO)C[C@H]1C	-23
CC1=CC(=O)CC(C)(C)[C@@]1(O)/C=C/C(C)=C\C(=O)O	19
N#Cc1c2c(c(=O)n3c1[nH]c1ccccc13)CCC2	89
Cn1c(=S)n(C)c2ccccc21	5
Fc1ccccc1CNCCC(Cc1ccccc1)c1ccc2c(c1)OCO2 (stereo not drawn)	-66
Cn1c(CNC(=O)C2CCC2)nc2c1CN(S(=O)(=O)c1ccc(Cl)cc1)CC2	31
CCCCOCC(=O)N1C[C@@H](N)C[C@H]1C(=O)NC(C)C	35
CCn1nc(C(C)C)cc1C(=O)NC(C)Cc1cnccn1 (stereo not drawn)	4
O=C(c1ccc(N2CC(O)C2)nc1)N1CCC(CCc2ccccc2)CC1	-15
COc1ccc(C2=NOC(COc3ccc4c(C)cc(=O)oc4c3)C2)c(OC)c1 (stereo not drawn)	15
CC=Cc1ccc2n(c1=O)C[C@@H]1[C@@H](CO)[C@H](C(=O)N3CCOCC3)N(Cc3ccccc3)[C@H]21 (mixture of isomers)	-45
CN(Cc1ccco1)CC1CCC2(COCCN(C(N)=O)C2)O1 (stereo not drawn)	5
Nc1cc(Cl)c(NC2=NCCN2)c(Cl)c1	13
CC1(C)CC(=O)c2cc(O)ccc2O1	0
Cc1ccc(OCCN(C)Cc2ccc(CO)o2)c(C)c1	5

Compounds from the list above containing an aryl methoxy group:
compound	Tgondii IFNg
COc1cccc2cc(C(=O)Nc3ccc(CN4CCOCC4)cc3)c(=O)oc12	13
COc1ccc(C2=NOC(COc3ccc4c(C)cc(=O)oc4c3)C2)c(OC)c1 (stereo not drawn)	15

The list continues:
compound	Tgondii IFNg
CC(C)(C)c1ncc2c(n1)CN(C(=O)CCn1nnc3ccccc31)C2	17
CC(=O)N1CCCC2(CCN(S(=O)(=O)c3cn(C)cn3)C2)C1 (stereo not drawn)	-14
O=C1N[C@H](Cc2ccccc2)COCc2cn(nn2)CC[C@H]1Cc1cccc(F)c1	48
CC(C)c1nccn1CCCNC(=O)c1ccc(-c2cccc3cccnc23)nc1	-1
CCN(CC)C(=O)c1cc(=O)n(CC(=O)NC2CCCC2)c2ccccc12	8
O=C(CN1CCOC1=O)N1CC[C@@H](c2ccc3c(c2)OCO3)[C@H](O)C1	-1
CN1C(=O)c2cc(NS(C)(=O)=O)ccc2OC[C@@H]2O[C@H](CC(=O)NCc3ccccc3)CC[C@H]21	4
COc1ccc2c(c1)c([C@@H]1CN(Cc3ccsc3)C[C@H]1N(C)C)cn2C	263
COc1ccc(-c2ccc(C(=O)NCc3nnc4n3CCCC4)o2)cc1	7
CC1CCCCN1S(=O)(=O)c1ccc2c(c1)CCC(=O)N2CC(=O)NC1CCCC1 (stereo not drawn)	19

Not a retest: entries from further up.
compound	Tgondii IFNg
COc1ccc(C2=NOC(COc3ccc4c(C)cc(=O)oc4c3)C2)c(OC)c1 (stereo not drawn)	15
CC=Cc1ccc2n(c1=O)C[C@@H]1[C@@H](CO)[C@H](C(=O)N3CCOCC3)N(Cc3ccccc3)[C@H]21 (mixture of isomers)	-45

(more compounds)
compound	Tgondii IFNg
c1ccc(CNc2cc(-c3ccc(-n4cnnc4)nc3)c3cc[nH]c3n2)nc1	-6
CCCNc1nc(C(=O)OCC)nc2ccccc12	10
CCNC(=O)C[C@@H]1CC[C@@H]2[C@H](COC[C@H](O)CN2C(=O)c2ccccn2)O1	-22
COc1ccc(-c2nc(Cn3nnc(C(=O)Nc4ccc(OC)c(Cl)c4)c3C)c(C)o2)c(OC)c1	132
CC(C)CN1CC2(CCN(C(=O)C3CCOCC3)CC2)COc2ccccc2S1(=O)=O	-45
CO[C@@H]1CN(C)C(=O)c2cc(NC(=O)c3ccc(Oc4ccccc4)cc3)ccc2OC[C@@H](C)NC[C@H]1C	-119*
c1cc(-c2ccc(C3[C@@H]4CN(Cc5nccs5)C[C@H]3N4)cc2)ccn1 (stereo partly drawn)	23
Cc1ccc(NC(=O)C2CC(=O)N(Cc3ccco3)C2)cc1 (stereo not drawn)	22
O=C(c1ccc(F)cc1)n1nccc1-c1csc(-c2ccccc2)n1	?
CC(C)NC(=O)N1CCCC2(CC(N(C)Cc3ccccn3)CO2)C1 (stereo not drawn)	-3
CCS(=O)(=O)N1CCC2(CCOCC2COc2cccnc2)CC1 (stereo not drawn)	-1
CCN(CC)CCCNC(=O)C1=C(C)C(=O)OC12CCN(S(C)(=O)=O)CC2	41
O=C(c1ccccn1)N1CCC2(CC1)OC(C(=O)N1CCCC1)Cn1ccnc12 (stereo not drawn)	16
CC(=O)N1CC2C[C@]2(NC(=O)c2ccc(F)cc2)C1 (stereo partly drawn)	-10
CC(=O)Oc1ccc(OC(C)=O)c2c1[C@@H]1C=C[C@H]2CC1	56
Cc1ccccc1S(=O)(=O)N1CCCCN2[C@H](CO)[C@@H](c3ccc(C#CCN(C)C)cc3)[C@H]2C1	-17
O=C(c1ccccn1)N1CC[C@@H]2[C@@H](CO)Nc3ccc(Br)cc3[C@@H]21	15
O=c1[nH]c(-c2ccccc2Cl)nc(=S)[nH]1	16
O=C(CN1C(=O)NC2(CCCCC2)C1=O)NC1(C#Cc2nccs2)CCCCC1	-10
CCC(Nc1ccc(Cl)cc1)C(=O)N1CCC2(CC1)CN(C)CCN2C (stereo not drawn)	-5
CCOc1ccsc1C(=O)N1CC[C@@H]2C(=O)NCCO[C@@H]2C1	-3
O=C(c1cccnc1)N1CC2(C1)[C@@H](c1ccccc1)[C@@H](CO)N2Cc1ccc(Cl)cc1	-23
Cc1ccsc1C1Nc2ccccc2C2c3[nH]c4ccccc4c3CCN12 (stereo not drawn)	178
CNC(=O)c1cc2c(nc1NCC(C)C)CCN(c1ccncn1)CC2	49
Cn1nc(C(F)(F)F)c2cc(C(=O)Nc3ccc(F)cc3)sc21	-67
CO[C@H](C(=O)N(C)C[C@H]1OCc2ccccc2-c2ccccc2C(=O)N([C@@H](C)CO)C[C@@H]1C)c1ccccc1	-20
COc1ccc2nc(NC(=O)COc3cccc(C)c3)sc2c1	-2
COC(=O)C1=C(C)N(C)C(=S)NC1c1ccc(Cl)cc1 (stereo not drawn)	-4
Cc1oc(C2CCN(C(=O)c3ccc(F)cc3Cl)CC2)nc1C(=O)N1CCCC1	-6
O=S(=O)(NCCc1csc(-c2ccncc2)n1)NCc1ccccc1	5
CSc1sc(C(=O)OC(C)C)c2c1C(=O)CC(C)(C)C2	-3
CN1C(=O)c2cc(NC(=O)c3cccc(F)c3)ccc2OC[C@@H]2O[C@H](CC(=O)NCC3CCCCC3)CC[C@@H]21	-23&-51&-66
Cc1cccc(S(=O)(=O)N2C[C@@H](O)COC[C@H]3O[C@@H](CC(=O)Nc4ccccc4)CC[C@@H]32)c1	-38
COc1ccc(C(=O)N2C[C@H]3[C@@H](c4ccccc42)[C@@H](CO)N3Cc2ccccc2Cl)cc1	1
Cc1nc(-c2ccc(Cl)cc2)sc1CCNC(=O)C12CC3CC(CC(C3)C1)C2	-52
O=C(CCC1N=C2c3ccccc3N=C(SCc3ccccc3F)N2C1=O)NCc1ccc(F)cc1 (stereo not drawn)	-6
COc1ccc(NC(=O)C2CCN(S(=O)(=O)c3ccc4[nH]c(=O)ccc4c3)CC2)cc1Cl	36
COc1ccc(NC(=O)c2cccc3[nH]cc(CN4CCCC4)c23)c(OC)c1	246
COc1cc(CNc2ccc(N3CCOCC3)cc2)ccc1OCc1ccccc1F	-17
COc1ccc2cc(-c3nc4ccccc4n3C)c(=O)oc2c1	215

Laid out differently: results already given
O=C(c1ccc(F)cc1)n1nccc1-c1csc(-c2ccccc2)n1
  Tgondii IFNg: ?
CC(C)NC(=O)N1CCCC2(CC(N(C)Cc3ccccn3)CO2)C1 (stereo not drawn)
  Tgondii IFNg: -3
CCS(=O)(=O)N1CCC2(CCOCC2COc2cccnc2)CC1 (stereo not drawn)
  Tgondii IFNg: -1
CCN(CC)CCCNC(=O)C1=C(C)C(=O)OC12CCN(S(C)(=O)=O)CC2
  Tgondii IFNg: 41

Other structures.
Compound,Tgondii IFNg
COCCNC(=O)c1cncc(N(C)S(=O)(=O)c2ccccc2)c1,48
Cc1nnnn1-c1ccc(C(=O)NC(C)c2ccc3c(c2)OCCO3)cc1 (stereo not drawn),0
CCc1cc(C(=O)NC(C)c2cc3cc(Cl)ccc3o2)n(C)n1 (stereo not drawn),-66
CCCCCCCCc1ccc(CCC(N)(CO)CO)cc1,-82*!
Cn1ccc(C(=O)N2CCC(c3ccnc4nccn34)C2)n1 (stereo not drawn),10
COCCN1CCC2(CCCN(C(=O)c3cscn3)CC2)C1=O (stereo not drawn),99
Cc1cc(CC(C)NC(=O)C(=O)c2ccco2)n[nH]1 (stereo not drawn),3
Cc1nc(C)n(CC(O)COc2ccc3ccccc3c2)n1 (stereo not drawn),-34
CCOc1ccc(NC(=O)Cn2c(=O)cc(C(=O)NC)c3ccccc32)cc1,10
CC(C(=O)N1CCc2c(nc(-c3ccccn3)[nH]c2=O)C1)N1CCCC1 (stereo not drawn),-6
COc1ccc(-c2nc3c(s2)CN(S(=O)(=O)c2cc(F)ccc2C)CC3)cc1OC,-68
Cc1cccc(-c2nc(C)c(CCNS(=O)(=O)c3cc(C)c(C)cc3C)s2)c1,338
C=CC(=O)N1CCC2C(C[C@@H](CN3CCCC3)N2c2nccs2)C1 (stereo partly drawn),3
CCS(=O)(=O)N1CC2(CN(C)[C@H](CO)c3c2c2ccc(OC)cc2n3C)C1,41
CCOC(=O)c1cnn(C)c1NC(=O)c1ccc(Cl)cc1Cl,-2
O=C(NCCc1csc(-c2ccc(F)cc2)n1)C(=O)Nc1ccc(F)cc1,115
Cn1nccc1-c1nc2c(cc1C(=O)O)CCNCC2,-47
COc1ccccc1NC(=O)Nc1ccc(-c2nc(-c3cc(C)ccc3C)co2)cc1,-36
CCOC1COC2(CCN(C(=O)CS(C)(=O)=O)CC2)C1 (stereo not drawn),211
O=C(c1[nH]cnc1-c1ccccc1)N1C[C@H](O)[C@@H](N2CCOCC2)C1,38
COc1ccc(-c2nc(Nc3ccc(F)c(Cl)c3)c3ccccc3n2)cc1,-32
O=C(O)C1CC=CCC1c1ccc(Cl)cc1Cl (stereo not drawn),9
NC(=O)c1cnc2n1CCN(C(=O)COc1ccccc1)C2,1
O=C1NCCO[C@@H]2CN(C(=O)c3cccs3)CC[C@H]12,3
Clc1cc(Cl)cc(N=c2ssnc2-c2ccccc2Cl)c1,-90*
CCc1noc(-c2c(O)c3cc(F)ccc3n(C)c2=O)n1,29
CCn1nc(C)cc1C(=O)Nc1ccc(Cl)c(C(=O)OC(C)C)c1,-16
CCn1c(CC2CCNCC2)nn(Cc2cccc(C)n2)c1=O,-54
CC(C)Cc1cc(C(=O)N2CCNCC2C(=O)N2CCOCC2)n(C)n1 (stereo not drawn),3
COc1ccc(-c2nc(Cn3nnc(-c4nc(-c5cccs5)no4)c3C)c(C)o2)cc1,-57
C[C@H]1CN([C@@H](C)CO)C(=O)c2cccc(NC(=O)c3cnccn3)c2O[C@H]1CN(C)C(=O)NC1CCCCC1,5
Cc1cccc(N2CCN(c3nc(-c4ccc(Cl)cc4)nc4ccccc34)CC2C)c1 (stereo not drawn),0
Cc1ccc(C2=NC3(CCN(Cc4ccccc4C)CC3)NC2=O)cc1C,5
COc1ccc(S(=O)(=O)N(C)C[C@@H]2Oc3c(cccc3N(C)C)C(=O)N([C@H](C)CO)C[C@@H]2C)cc1,-27
CS(=O)(=O)NCCC1CN(Cc2cc3ccccc3[nH]2)CCO1 (stereo not drawn),4
CN1C(c2ccccc2)CC(=O)CC1c1ccccc1 (stereo not drawn),-7
Cc1nn(C)c(C)c1CN(C)Cc1cc2n(n1)CCCNC2,2
CN(C)CC(=O)N1CCOC2C(COc3ncccn3)CCC21 (stereo not drawn),101
O=C(CCn1cnc2cc(-c3noc(-c4cccc5[nH]ccc45)n3)ccc21)N1CCCC1,-9
COc1cc(NC(=O)CN2CCC(n3nc(C)cc3C)C2)cc(OC)c1 (stereo not drawn),-3
COc1cc(Cl)cc2cc(C(=O)N3CCC(O)(CN(C)C)C3)oc12 (stereo not drawn),-6
COc1cc(C(C)(C)C)c(OC)cc1C(C)(C)C,2
CO/N=C(\C(=O)N[C@@H]1C(=O)N2C(C(=O)O)=C(COC(N)=O)CS[C@H]12)c1ccco1,16
CN(C)CC1(O)CCN(C(=O)c2cc(-c3ccccc3)nc3ccccc23)C1 (stereo not drawn),-5
O=C(O)[C@H]1C[C@@H](C(=O)Nc2ccc(F)cc2)CN(Cc2cccnc2)C1,-7
C1=CCC(CN(CCCn2ccnc2)CC2CCOC2)CC1 (stereo not drawn),11
CC1CCN(S(=O)(=O)c2ccc3c(c2)CCC(=O)N3CC(=O)N2CCN(C)CC2)CC1,27
CCOC(=O)C1CCN(S(=O)(=O)c2cc(-c3nc(C(C)(C)C)cs3)cs2)CC1,10
Cc1nc2ccc(C(=O)Nc3cnc4n3CCCC4)cc2nc1C,-55

Single entries from the list.
Under Tgondii IFNg, `CCOC(=O)C1CCN(S(=O)(=O)c2cc(-c3nc(C(C)(C)C)cs3)cs2)CC1` is listed with 10
Under Tgondii IFNg, `Cc1nc2ccc(C(=O)Nc3cnc4n3CCCC4)cc2nc1C` is listed with -55
